Screens as filed in PubChem BioAssay.
HCMV UL50-53 inh = inhibitors of HCMV UL50-UL53 interaction, biochemical, HTRF. HCMV UL50-UL53 nuclear egress complex (human cytomegalovirus). normalized percent inhibition. inhibition, % (no concentration beside the values). actives 0.15% (n = 190,000). AID 1918969, 2023;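 active = both replicates at 50% or more, plus weaker picks with an unusually low signal ratio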;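 also: stock transfer was 100 nL into about 20 µL; 0% = negative control wells and 100% = wells with untagged competitor protein; inactives centre near -12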
Sa growth 42C = S. aureus growth inhibition at 42 and 30 °C, primary screen, LtaS inhibitor project, RN4220, two temperatures | OD600, 20 h, 42 °C; active compounds read low | actives 0.53% (n = 170,000) | relative growth, % (concentration not given with the values) | AID 720641, 2013;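 active = growth at 42 °C up to 50% and 20 or more points under that at 30 °C, or under 10% at both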;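 also: 300 nL library stock went into each well; scaled to the means of positive and negative controls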
GIV Gai3 FP = inhibitors of GIV peptide binding to Galpha-i3, primary screen, biochemical, fluorescence polarization, FITC-GIV GBA peptide, rat Galphai3. percent of control (FP), % (concentration not given with the values). Guanine nucleotide-binding protein G(i) subunit alpha-3 (Rattus norvegicus), P08753. 90 min; active compounds read low; scaled: aluminum fluoride 0%, vehicle 100%. actives 0.42% (n = 210,000);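 active = replicate mean at 85% of control or lower, very high polarization wells dropped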;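 also: wells of about 15 µL received 100 nL stock; the first replicate is given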
Target sequence (P08753 whole entry, looked up): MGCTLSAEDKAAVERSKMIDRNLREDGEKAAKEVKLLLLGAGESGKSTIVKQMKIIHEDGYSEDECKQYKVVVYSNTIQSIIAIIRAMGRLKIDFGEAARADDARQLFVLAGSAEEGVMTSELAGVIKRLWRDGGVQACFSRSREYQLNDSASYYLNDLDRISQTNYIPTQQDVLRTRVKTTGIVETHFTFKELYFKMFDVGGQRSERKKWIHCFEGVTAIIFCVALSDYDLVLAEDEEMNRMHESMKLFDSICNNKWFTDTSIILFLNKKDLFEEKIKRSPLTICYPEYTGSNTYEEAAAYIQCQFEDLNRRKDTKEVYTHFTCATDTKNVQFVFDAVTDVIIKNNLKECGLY
Sa growth 42C second temp = second read-out of Sa growth 42C, no call of its own (marks repeat the call); relative growth, %; measured here: growth at 30 °C;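 optical density after 20 h as mean of two plates; 100% = untreated growth and lower means inhibition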
* marks the source's active call; other numbers are inactive results; · = not tested or not shown; & = joins results of further samples.

structure | HCMV UL50-53 inh | Sa growth 42C | Sa growth 42C second temp | GIV Gai3 FP
Cc1nc2ccccc2c(=O)n1-c1ccc(NC(=O)c2ccc([N+](=O)[O-])cc2)cc1 | · | 106 | 81 | 94
O=C(NCc1ccccn1)c1cc(-c2ccc(Br)cc2)nc2ccccc12 | -8 | · | · | 101
Cc1[nH]c(=O)[nH]c(=O)c1S(=O)(=O)N(C)Cc1ccccc1 | 2 | 93 | 97 | 101
CN=C(c1ccc(C)cc1)n1c(=S)nc(-c2ccc(C)cc2)n(C)c1=S | · | 80 | 86 | 106
CC(C)C(=O)NS(=O)(=O)c1ccc(NS(C)(=O)=O)cc1 | -12 | 95 | 94 | 103
O=C(O)c1cc2ccccc2nc1Cl | -37 | 91 | 102 | ·
Cc1cc2ncn(CCC(=O)NC(C)(C)C)c2cc1C | -21 | 100 | 80 | 101
CCN(CC)C(=O)Cn1cc(SCC(N)=O)c2ccccc21 | · | 114 | 94 | 96
O=C1C(=Cc2cccn2-c2ccc(O)cc2)C(=O)c2ccccc21 | · | 113 | 88 | 72*
O=C(O)c1cc(-c2ccccc2)nn1Cc1ccccc1 | -16 | 112 | 95 | 100
CCC(=O)Nc1cc(-c2cn3cccnc3n2)ccc1OC | · | 96 | 91 | 111
COc1ccccc1NC(=O)C1=C(C)Nc2nnnn2C1c1ccc(C(F)(F)F)cc1 (stereo unspecified) | -23 | 114 | 99 | 103
Nc1c(-c2ccc3c(c2)OCCO3)oc2ccccc2c1=O | -45 | 85 | 87 | ·
Cc1ccc2c(=O)cc(C(=O)Nc3sc4c(c3C(=O)NCC3CCCO3)CCCC4)oc2c1C (stereo unspecified) | -22 | 114 | 89 | 99
NNC(=O)c1ccc(CSc2ccc(C(F)(F)F)cn2)o1 | -23 | 96 | 82 | 100

Reprinted from the part before: 3 compounds, followed by the next part.
structure | HCMV UL50-53 inh | Sa growth 42C | Sa growth 42C second temp | GIV Gai3 FP
Nc1c(-c2ccc3c(c2)OCCO3)oc2ccccc2c1=O | -45 | 85 | 87 | ·
Cc1ccc2c(=O)cc(C(=O)Nc3sc4c(c3C(=O)NCC3CCCO3)CCCC4)oc2c1C (stereo unspecified) | -22 | 114 | 89 | 99
NNC(=O)c1ccc(CSc2ccc(C(F)(F)F)cn2)o1 | -23 | 96 | 82 | 100
COCC(=O)Nc1ccc2c(c1)OCC(=O)N2Cc1ccc(C)cc1 | 7 | 107 | 94 | 96
Cc1oc2ccc(O)c(CN(C)Cc3ccccc3)c2c1C(=O)Nc1cccc(C(F)(F)F)c1 | 21 | 106 | 45 | 108
COc1ccc2c(c1)CCCN2Cc1c[nH]c2ccccc12 | -17 | 92 | 81 | 99
COc1cccc(-c2nnc(SCCOc3ccccc3)n2C)c1 | -7 | 102 | 94 | ·
COc1ccccc1N1CCN(C(CNC(=O)C(=O)NCCCN(C)C)c2cccnc2)CC1 (stereo unspecified) | -14 | 115 | 94 | 107
CC(Sc1ccccc1)C(=O)NCc1ccco1 (stereo unspecified) | -2 | 94 | 97 | 108
COc1cc(/C=N/NC(=O)CSc2nc(C)cc(C)n2)ccc1O | -27 | 94 | 94 | 99
O=C1CC(c2ccccc2F)c2cc3c(cc2N1)CCC3 (stereo unspecified) | -2 | 103 | 94 | ·
C=CCc1cccc(C=Nc2cccn3cc(-c4ccccc4)nc23)c1O | · | 108 | 90 | 98
Clc1ccccc1CNCc1ccccc1 | 2 | 101 | 86 | ·
CCOc1ccc(CC(=O)C2C(=O)CCCC2=O)cc1OCC | -7 | 114 | 83 | 103
COc1ccc(-c2ccc(NS(=O)(=O)c3cc(C)c(C)cc3C)cc2)nn1 | · | 101 | 91 | 102
N#Cc1cccc(OCC(=O)NC(=O)NCc2ccccc2)c1 | 4 | 109 | 85 | ·
COC(=O)c1c(C)oc(C)c1S(=O)(=O)Nc1ccccc1 | -8 | 117 | 94 | 104
Cc1cc2c(N3CCC(C(=O)O)CC3)ncnc2s1 | -5 | 84 | 83 | ·
COCCn1c(O)c(/C=N/Nc2nnc(C)c(=O)[nH]2)c(=O)[nH]c1=S | -26 | 80 | 84 | ·
COc1ccc(CNC(=O)c2ccc(NC(=O)N3CCSc4ncccc43)cc2)c(OC)c1 | · | 102 | 90 | 105
CC1=NN(c2ccccc2)C(=O)/C1=C\c1ccc(N)cc1 | -21 | 97 | 82 | 100
COCCCn1cc(C(=O)c2cc(F)ccc2O)cc(C#N)c1=O | -23 | 80 | 89 | ·
Cc1cccc(-c2cc(NC(=O)C(C)(C)C)n(-c3ccccc3)n2)c1 | · | 75 | 86 | 104
CSc1ccc2nnc(-c3cccnc3)n2n1 | -12 | 82 | 87 | 109
O=C(NCC1CCCO1)c1cccc(N2C(=O)CCS2(=O)=O)c1 (stereo unspecified) | -22 | · | · | 107
CN(C)CCNC(=O)c1ccc(Br)s1 | -5 | 106 | 111 | 102
Cc1[nH]c(C)c(S(=O)(=O)N2CCC(C(=O)N3CCCc4ccccc43)CC2)c1C(=O)N1CCCCC1 | -34 | · | · | 110
Cc1noc(C)c1CC(=O)N1CCC2CCCCC2C1 (stereo unspecified) | -30 | 87 | 97 | ·
CCc1ccc(N2C(=O)/C(=C/c3ccc(OCC(=O)O)c(OC)c3)C(=O)NC2=S)cc1 | -11 | · | · | 105
CCc1ccc(NC(=O)CSc2nnc(-c3cc4occc4n3C)n2-c2ccccc2C)cc1 | · | 127 | 94 | 106
COc1cc(CNc2ccc3[nH]c(=O)[nH]c3c2)cc(Cl)c1OCC(=O)NC(C)(C)C | 10 | 79 | 87 | 102
S=c1nc(CNc2ccccc2)[nH][nH]1 | -28 | 63 | 58 | 100
CSc1nn(CSc2n[nH]c(-c3ccccc3F)n2)c(=S)s1 | 5 | 97 | 90 | 104
O=C(Nc1cccc(F)c1)[C@@H](c1ccccc1)N1Cc2ccccc2C1=O | -27 | 97 | 74 | 106
N#C/C(=C\c1ccc2c(c1)OCO2)C(=O)OCCN1CCCC1=O | -42 | 103 | 99 | ·
COc1ccc(N=Cc2ccc(SC)cc2)cc1N | 17 | 101 | 98 | ·
O=c1cc(CO)oc(CN2CCCC2)c1O | -20 | 84 | 82 | 101
COc1ccc(OC)c(NC(=O)C(CCSC)NS(=O)(=O)c2cccs2)c1 (stereo unspecified) | -6 | 111 | 84 | 104
Cc1ccc(C(=O)N/N=C/c2ccccc2)cc1 | -15 | 103 | 106 | 99
O=S(=O)(c1cccs1)N(c1ccccc1)C(F)F | -21 | 87 | 98 | ·
Cc1ccc(C(=O)NCC(=O)OCc2cc(=O)n3c(C)csc3n2)cc1 | · | 87 | 85 | 103
CC(NC(=O)Nc1ccccc1)C(c1cccs1)N1CCCC1 (stereo unspecified) | -5 | 83 | 95 | ·
CCOc1ccc2c(c1)[N+](C)(C)C(C)(C)C=C2C | · | 98 | 79 | 101
O=C(C1CCN(c2ncnc3c2sc2ncccc23)CC1)N1CCN(c2ccc(Cl)cc2)CC1 | -31 | · | · | 106
Cc1cccc(C(=O)N2c3nc(-c4ccco4)nn3C3(CCCCC3)[C@@H]3CCCC[C@@H]32)c1 | -17 | 101 | 87 | 100
C=CCn1c(SCC(=O)NC(C)(C#N)C(C)C)nc2ccccc2c1=O (stereo unspecified) | -34 | 110 | 98 | ·
Cc1cc(NC(=O)c2cccc(S(=O)(=O)N3CCCCC3)c2)no1 | 4 | 123 | 98 | 106
CCn1c(C(=O)NCc2ccc(F)cc2)cc2oc3ccccc3c21 | -20 | 113 | 83 | 103
Cc1ccc(C(=O)Nc2ccc(-n3c(C)nc4ncccc4c3=O)cc2)cc1 | -4 | · | · | 103
C/C(=N\NC1=NCCN1)c1ccc(C)cc1 | 39 | 86 | 81 | 107
O=c1c(=Nc2ccccc2O)c(=O)c2ccccc12 | 37 | 93 | 83 | ·
CN(C)S(=O)(=O)c1ccc(C(=O)OCCN2C(=O)c3cccc4c(N5CCOCC5)ccc(c34)C2=O)cc1 | -12 | · | · | 98
Cc1cccc(OCCCn2c(CCNC(=O)C3CCCCC3)nc3ccccc32)c1 | -10 | 103 | 79 | 103
CN(c1ccccc1C(=O)NCc1ccco1)S(C)(=O)=O | -4 | 110 | 83 | 104
O=C(c1ccc2c(c1)N(Cc1ccc(F)cc1)C(=O)c1ccccc1S2=O)N1CCOCC1 (stereo unspecified) | -26 | 101 | 81 | 100
CCN1CCn2c3c(c4cc(C)ccc42)CCCC31 (stereo unspecified) | 4 | 97 | 88 | 108
CCOc1cc(-c2noc(-c3ccccc3)n2)ccc1OCC(=O)Nc1nnc(C)s1 | -27 | · | · | 104
N#Cc1cc2c(nc1SC1CC(=O)N(c3ccc(Br)cc3)C1=O)CCC2 (stereo unspecified) | -26 | · | · | 117
O=C(CCN1CCCCC1)N/N=C/c1ccccc1OC(F)F | -2 | 90 | 104 | ·
Cn1c(=O)c2c(nc(NCc3ccc4c(c3)OCO4)n2Cc2ccc(Cl)cc2)n(C)c1=O | -12 | · | · | 108
N#CC(c1ccccn1)c1nc(=O)c2ccccc2s1 (stereo unspecified) | -10 | 92 | 91 | ·
Cc1ccc(NC(=O)C2CCC(CNS(=O)(=O)c3cccc4nsnc34)CC2)c(C)c1 (stereo unspecified) | -28 | 109 | 87 | 104
COc1ccccc1CCNC(=O)Cc1c(C)c2c(cc(C)c3c(C)coc32)oc1=O | -3 | 100 | 94 | 111

A draw from above in order of formula weight, lowest first:
structure | HCMV UL50-53 inh | Sa growth 42C | Sa growth 42C second temp | GIV Gai3 FP
N#Cc1cc2c(nc1SC1CC(=O)N(c3ccc(Br)cc3)C1=O)CCC2 (stereo unspecified) | -26 | · | · | 117
CCOc1cc(-c2noc(-c3ccccc3)n2)ccc1OCC(=O)Nc1nnc(C)s1 | -27 | · | · | 104
Cc1ccc(NC(=O)C2CCC(CNS(=O)(=O)c3cccc4nsnc34)CC2)c(C)c1 (stereo unspecified) | -28 | 109 | 87 | 104

Next section:
structure | HCMV UL50-53 inh | Sa growth 42C | Sa growth 42C second temp | GIV Gai3 FP
Cc1ccccc1NC(=O)c1nccnc1C(=O)O | -8 | · | · | 99
NC(=O)c1cnc(C(F)(F)F)cc1C(F)(F)F | -1 | 109 | 94 | 105
CC1Cc2ccccc2N1C(=O)c1ccc2c(c1)OCO2 (stereo unspecified) | -16 | 112 | 95 | 102
Cc1nn(-c2ccccc2)c(C)c1-c1nc(-c2ccccc2)no1 | -3 | 102 | 88 | 97
O=C(NCCn1cc(SCc2ccc(Cl)cc2)c2ccccc21)c1cccs1 | -28 | 83 | 74 | 98
COC(=O)c1ccccc1NC(=O)N1CCC(n2c(C)nc3cccnc32)CC1 | · | 110 | 89 | 111
CCN1c2ccccc2NC2N=C(OC)C(c3ccccc3)C21 (stereo unspecified) | · | 99 | 68 | 114
CN1CCN(C(=O)CN2C(=O)CCc3cc(S(=O)(=O)N4CCCCC4)ccc32)CC1 | -29 | · | · | 108
Cc1ccccc1NC(=O)CC(NCc1cccnc1)C(=O)O (stereo unspecified) | 6 | 96 | 98 | 104
Cc1ccc(CNC(=O)c2cc3c(s2)-c2ccc(Cl)cc2SC3)cc1 | -18 | 107 | 84 | 100
O=C(CN1CCN(c2ccc(O)cc2)CC1)NC1CCCc2ccccc21 (stereo unspecified) | -3 | 110 | 94 | ·
Cc1cc(=O)cc(C)n1-c1ccc(Cl)cc1Cl | -20 | 120 | 82 | ·
CCOc1ccc(S(=O)(=O)N/N=C2/C=C(C)CC2)cc1 | 3 | 106 | 87 | ·
CC(C)(C)c1ccc(C(=O)N2CCC(c3nc(-c4ccc(Cl)cc4)no3)CC2)cc1 | -37 | 102 | 90 | 99
Cc1cccc(-c2nnc(C3CCN(S(=O)(=O)Cc4ccccc4)CC3)o2)c1 | · | 69 | 46 | 105
Cc1ccc(C)c(Nc2cn[nH]c(=O)c2Cl)c1 | -34 | 91 | 84 | ·
Cc1[nH]n(-c2ccccc2)c(=S)c1C=NC(C)Cc1ccccc1 (stereo unspecified) | · | 71 | 84 | 106
Oc1ccc2ccccc2c1C=Nc1c(F)c(F)c(F)c(F)c1F | -25 | 123 | 86 | ·
CC(C)(C)c1ccc(-c2nc(S(=O)(=O)c3ccccc3)c(N3CCOCC3)o2)cc1 | -14 | 80 | 89 | 105
NC(=O)N/N=C/c1ccc(-c2ccc(SC(F)F)cc2)o1 | -31 | 101 | 96 | ·
Cc1c2cnn(-c3ccccc3)c(=O)c2c(C)n1CCCC(=O)NCCC1=CCCCC1 | 5 | 104 | 78 | 98
Nc1c(Br)cc(Br)cc1CNC1CCC(O)CC1 (stereo unspecified) | -30&0&-12&-19 | 91 | 92 | 98
COc1cc(C(=O)Nc2cccc(-c3nnc(-c4ccco4)o3)c2)ccc1OC(C)=O | -24 | 97 | 72 | 95
Cc1ccc(-c2cn3nc(C(C)C)sc3n2)cc1C | -2 | 101 | 89 | 109
